# Compound activity as filed in PubChem BioAssay.
# 2A Renilla: Primary qHTS Assay for Foot and Mouth Disease Virus Antivirals against NCGC Sytravon and CBC Compound Libraries: Renilla Luciferase Signal; HEK cells with a luciferase reporter of 2A StopGo recoding; Potency, µM (titrated, usually from 57.5 µM), inactives show top-dose signal change, negative = less light; 120,000 tested, 0.32% active; AID 1745857, 2022; active means well fitted falling curve with a large enough effect; inconclusive means small, poorly fitted or top-dose-only effect; inactive means no such curve, though single readings can be large or run the other way; also: nearly all actives have a fitted effect of over 55% in size; overnight with compound
# StopGo FLuc: Primary qHTS Assay for Foot and Mouth Disease Virus Antivirals against NCGC Sytravon and CBC Compound Libraries: Firefly Luciferase Signal | HEK cells with a luciferase reporter of 2A StopGo recoding | Potency, µM (doses to about 57.5 µM), without a hit: top-dose signal change, negative = less light | 120,000 tested, 0.23% active | AID 1745856, 2022; active = well fitted falling curve with a large enough effect; inconclusive = small, poorly fitted or top-dose-only effect; inactive = no such curve, though single readings can be large or run the other way; also: nearly all actives have a fitted effect of over 60% in size; overnight with compound
# * marks the source's active call; other numbers are inactive results; ? = inconclusive; [ ] = another dose, or the depositor's remark. % is scaled to controls: 0 for no effect and ±100 for the full control effect; potency is read from the fitted curve at half-maximal effect.
SMILES,2A Renilla,StopGo FLuc
C[N+](C)(CCCCC(=O)O)C[Si](C)(C)C,-1%,5%
C[C@@H]1ON(C)[C@H]2C[C@H]3c4[nH]c5c(-c6ccccc6F)cccc5c4CCN3C[C@@H]12,-6%,2%
O=C(Nc1cccc(NC(=O)c2ccc(Br)cc2)c1)c1ccccc1,10%,-15%
Cc1ccc(CN(Cc2ccco2)C(=O)COc2ccccc2C)cc1,?,?
CC1=CCC2C(C)(C)C(O)CCC2(C)C1COc1ccc2ccc(=O)oc2c1 (stereo unspecified),?,?
O=C(CC1CCCC1)OCC(=O)c1ccc(Cl)cc1,8%,0%
CCN(CC)S(=O)(=O)c1ccc(N/N=C/c2ccc(C)s2)c([N+](=O)[O-])c1,-1%,12%
COC(=O)C(Cc1ccc(O)cc1)NC(=O)c1nn(CC(C)C)c(=O)c2ccccc12 (stereo unspecified),19%,33%
COc1cccc(N2CCN(C(=O)c3nn(C)c4c3CSc3ccc(C)cc3-4)CC2)c1,-12%,-17%
CC(N)c1cccc([N+](=O)[O-])c1 (stereo unspecified),3%,0%
COc1ccc(Oc2c(C)oc3cc(OCC(=O)N4CCCC4)ccc3c2=O)cc1,18%,0%
COc1ccc(C2c3c(n(C)c4ccccc34)C(=O)N2CC(=O)Nc2ccc(C)c(Cl)c2)cc1 (stereo unspecified),-12%,3%
CCc1cc(=O)oc2cc(OC(C)C(=O)Nc3ccccc3F)ccc12 (stereo unspecified),7%,13%
O=C1C(c2ccc(F)cc2)N(CCc2ccccc2Cl)C(=O)CN1C1CCCCC1 (stereo unspecified),9%,4%
O=C1Cc2cc(C(=O)NCCc3ccc4c(c3)OCO4)ccc2N1,-4%,-2%
CC(OC(=O)c1ccc(CO)cc1)C(=O)c1c[nH]c2ccccc12 (stereo unspecified),18%,0%
O=Cc1c[nH]c2ccccc12,-9%,-10%
CC1(C)CCCC(C)(C#CCN2CCCCC2c2cccnc2)O1 (stereo unspecified),-11%,-3%
Cc1cc(=O)oc2cc(OCc3nc(CC(C)C)no3)ccc12,1%,142%[activator]
CCOC(=O)c1cc(S(=O)(=O)NCc2ccccc2)[nH]n1,6%,-15%

# Not a retest: an excerpt of the list.
SMILES,2A Renilla,StopGo FLuc
C[N+](C)(CCCCC(=O)O)C[Si](C)(C)C,-1%,5%
C[C@@H]1ON(C)[C@H]2C[C@H]3c4[nH]c5c(-c6ccccc6F)cccc5c4CCN3C[C@@H]12,-6%,2%
O=C(Nc1cccc(NC(=O)c2ccc(Br)cc2)c1)c1ccccc1,10%,-15%
Cc1ccc(CN(Cc2ccco2)C(=O)COc2ccccc2C)cc1,?,?
CC1=CCC2C(C)(C)C(O)CCC2(C)C1COc1ccc2ccc(=O)oc2c1 (stereo unspecified),?,?
O=C(CC1CCCC1)OCC(=O)c1ccc(Cl)cc1,8%,0%
CCN(CC)S(=O)(=O)c1ccc(N/N=C/c2ccc(C)s2)c([N+](=O)[O-])c1,-1%,12%
COC(=O)C(Cc1ccc(O)cc1)NC(=O)c1nn(CC(C)C)c(=O)c2ccccc12 (stereo unspecified),19%,33%
COc1cccc(N2CCN(C(=O)c3nn(C)c4c3CSc3ccc(C)cc3-4)CC2)c1,-12%,-17%
CC(N)c1cccc([N+](=O)[O-])c1 (stereo unspecified),3%,0%
COc1ccc(Oc2c(C)oc3cc(OCC(=O)N4CCCC4)ccc3c2=O)cc1,18%,0%
COc1ccc(C2c3c(n(C)c4ccccc34)C(=O)N2CC(=O)Nc2ccc(C)c(Cl)c2)cc1 (stereo unspecified),-12%,3%
CCc1cc(=O)oc2cc(OC(C)C(=O)Nc3ccccc3F)ccc12 (stereo unspecified),7%,13%

# Additional structures:
SMILES,2A Renilla,StopGo FLuc
COC(=O)C(C)OC(=O)c1cc2ccccc2cc1OC (stereo unspecified),-7%,5%
Cc1cc(C)c2oc(-c3ccc(C)c(NC(=O)/C=C/c4ccco4)c3)nc2c1,-12%,30%
Cn1c(=O)c2[nH]c(N3CCN(c4ccccc4)CC3)nc2n(C)c1=O,3%,1%
COc1ccc(NC(=O)C(Cc2ccccc2)NS(=O)(=O)c2ccc3c(c2)CCN3C(C)=O)cc1 (stereo unspecified),19%,-13%
CCOc1cccc(-c2cc(C(=O)O)c3cc(C)ccc3n2)c1,?,57%[activator]
Cc1cccc(N(C)C(=O)CN2C(=O)COc3ccc(S(=O)(=O)N4CCCCCC4)cc32)c1,0%,-23%
C=C(C)CSc1nc2c(c(=O)n(C)c(=O)n2C)n1CCCc1ccccc1,?,?
CCC1CN(C(=O)N2CCC(C(=O)N3CCN(c4ccccc4F)CC3)CC2)c2ccccc2O1 (stereo unspecified),-10%,-19%
CC(Sc1nc2ccccc2[nH]1)C(=O)NC(=O)NC12CC3CC(CC(C3)C1)C2 (stereo unspecified),3%,0%
CCN1CCN(C(=O)CN(c2cccc(C)c2)S(C)(=O)=O)CC1,20%,39%[activator]
COc1cccc(C2CC(=O)NC3=C2C(=O)CC(C)(C)C3)c1 (stereo unspecified),2%,19%
CN(CC(=O)Nc1cccc(C(F)(F)F)c1)Cc1ccccc1,54%[activator],17%
CC(C)Cc1nc2cccnc2n1C1CCNCC1,-11%,-7%
CN(CCO)C(=O)CNC(=O)C1CCCN(S(=O)(=O)c2ccc(Cl)cc2)C1 (stereo unspecified),-18%,-21%
COc1cc(NC(=O)C2=C(C)Nc3nnnn3C2c2ccc(SC)cc2)c(OC)cc1Cl (stereo unspecified),-16%,-11%
Cc1cccc(NC(=O)NCCc2coc(-c3ccc(F)cc3)n2)c1,52%[activator],-9%
O=C(NCCn1nc(-c2ccc(F)cc2)ccc1=O)c1cccc(C(F)(F)F)c1,-4%,-4%
COc1ccccc1NC(=O)CSc1nc2ccccc2c(=O)n1CCC(=O)NC1CCCCC1,-13%,-16%
Cc1nc2cc(NC(=O)CNC(=O)c3ccco3)ccc2o1,1%,81%[activator]
Nc1nccnc1C(=O)NCCNC(=O)c1ccccc1,-3%,0%
CCC1c2ccsc2CCN1C(=O)CNC(=O)c1ccccc1Cl (stereo unspecified),20%,13%
CCOC(=O)c1ccc(S(=O)(=O)NCc2ccco2)cc1,-7%,-8%
Cc1noc(CN(C)CC2COc3ccccc3O2)n1 (stereo unspecified),-2%,-3%
O=C(NCc1ccccc1)c1cc2sccc2n1Cc1ccc(Cl)cc1,-3%,-7%
O=C(Cc1cccc(F)c1)NCCc1c[nH]c2ccccc12,0%,10%
CCc1ccc(NC(=O)c2sc3nc(-c4ccccc4)cn3c2C)cc1,8%,32%[activator]
COc1ccc(OCCN2CCN(C(=O)c3nn(Cc4ccccc4)c(=O)c4ccccc34)CC2)cc1,15%,-24%
COC(=O)c1ccccc1NC(=O)C1CCCN(c2ncnc3onc(C)c23)C1 (stereo unspecified),3%,4%
O=C(NCCN1CCN(c2ccccc2)CC1)Nc1cccc(Br)c1,-9%,-24%
CC(C)c1nc2ccc(C(=O)NCc3ccccc3Br)cc2o1,-13%,19%
CC(=O)c1csc(NC(=O)c2nn(C)c(=O)c3ccccc23)n1,6%,27%
CCCn1c(CN(Cc2ccccc2)Cc2ccccc2)nc2c1c(=O)n(C)c(=O)n2C,7%,-4%
COc1ccc(C(=O)Nc2ccc(S(=O)(=O)N(Cc3ccccc3)c3ccccc3)cc2)cc1,5µM*,5µM*
O=C(Nc1ccccc1Br)c1cc(S(=O)(=O)NC2CCCCC2)ccc1F,46%[activator],?
CCSc1nc2c([nH]c3ccccc32)c(=O)n1CC,-8%,-17%
CCCCN1C(=O)C(O)(CC(=O)c2cc(C(C)C)ccc2C)c2ccccc21 (stereo unspecified),18%,0%
COc1ccc(C(=O)CCC#N)cc1OC,-13%,17%
Cc1ccc2oc(-c3ccc(Br)cc3)nc2c1,7%,159%[activator]
CSc1nc(C)cc(-c2ccccc2)n1,-15%,23%
O=c1cc(-c2ccccc2Cl)oc2ccc(Cl)cc12,577%[activator],330%[activator]
COc1ccc(OC)c(-n2nnc(C(=O)NCc3ccco3)c2N)c1,-13%,0%
Cc1ccc(C(=O)Nc2ccc(-c3nc4ccccc4o3)cc2)cc1Cl,4%,6%
CCC(C)S(=O)(=O)c1oc(-c2ccc(F)cc2)nc1S(=O)(=O)c1ccc(F)cc1 (stereo unspecified),?,?
COC(=O)c1ccc(COc2ccc3ccccc3c2)o1,33%[activator],17%
Cc1ccc(C)c(S(=O)(=O)c2cn(C)c3cc(F)c(F)cc3c2=O)c1,0%,-5%
Cc1ccc(-c2nc(N)sc2CC(=O)OCC(=O)N(CCC#N)c2ccc(F)cc2)cc1,-6%,-1%
CC(C)c1ccc(NC(=O)CSC2=Nc3ccccc3C3=NC(CCC(=O)NCc4cccs4)C(=O)N23)cc1 (stereo unspecified),8%,-14%
CS(=O)(=O)n1nc(-c2ccco2)nc1NCc1ccccc1Cl,106%[activator],185%[activator]
COc1ccc(OC)c(S(=O)(=O)N2CCN(C(=O)C3=Cc4cc(Cl)ccc4OC3)CC2)c1,19%,-9%
Cc1cccc(OCC(=O)Nc2ccccc2C(=O)OCc2cc(=O)n3nc(C)sc3n2)c1,-7%,-10%
CCn1nnc(NC(=O)C(C)Oc2ccc(Cl)cc2Cl)n1 (stereo unspecified),3%,16%
O=C(NCC1(N2CCOCC2)CCSC1)Nc1ccc(F)cc1 (stereo unspecified),-6%,9%
CC(C)(C)c1ccc(-c2nnc(SCC(=O)NC(=O)NC3CCCC3)n2Cc2ccco2)cc1,?,?
CC1CCN(c2cc3c(cc2F)c(=O)c(S(=O)(=O)c2cccc(Cl)c2)cn3Cc2ccccc2)CC1,3%,-2%
COc1cc(C2CC(=O)Nc3c2c(C)nn3-c2cc(C)cc(C)c2)ccc1O (stereo unspecified),-2%,5%
CCN(CC)C(=O)CSc1nc2c(c(=O)n(C)c(=O)n2C)n1Cc1ccccc1,14%,3%
COc1ccc(-c2nc3n(n2)C(c2ccc(Cl)cc2)C2=C(CCCC2=O)N3)cc1OC (stereo unspecified),12%,4%
CCc1ccc(NCc2cc3cc(OC)c(OC)cc3n(CC(=O)Nc3cc(C)ccc3C)c2=O)cc1,-3%,12%
CCN1c2ccccc2-c2nc(SCC(=O)Nc3cc(OC)cc(OC)c3)ncc2S1(=O)=O,-21%,-13%
CC(C)(C)OC(=O)N/N=C/c1cccc(Cl)c1Cl,15%,231%[activator]
# (further entries)
SMILES,2A Renilla,StopGo FLuc
Cc1ccccc1-c1nc(CN2C(=O)CN=C(c3ccccc3)c3ccccc32)c(C)o1,-1%,?
O=C(Nc1nc2c(F)cc(F)cc2s1)c1ccc(S(=O)(=O)N2CCc3ccccc32)cc1,-6%,18%
Cc1ccc2onc(CC(=O)N3CCN(c4cccc(Cl)c4)CC3)c2c1,-17%,-9%
CC(C)(C)OC(=O)N1CCC(c2c(C(=O)N3CCN(C(=O)c4ccco4)CC3)cnn2-c2cccc(F)c2)CC1,-3%,-2%
Cn1c(=O)c2sccc2n2c(CCC(=O)Nc3ccc(F)cc3)nnc12,24%,26%
COc1ccc(S(=O)(=O)N2CCC3(CC2)N=C(c2cccs2)C(=O)N3)cc1OC,-12%,-14%
CCN(CC)S(=O)(=O)c1cccc(C(=O)OCc2nc3ccccc3o2)c1,-10%,-13%
Cc1ccc(NC(=O)CN(C)C(=O)C2CCN(c3ccc(C#N)cn3)CC2)cc1,-11%,-4%
COc1ccc(C2CC(=O)c3c([nH]c(C(=O)OCc4ccccc4)c3C)C2)cc1OC (stereo unspecified),-6%,-5%
CCCCN(CCCC)CCNC(=O)c1cn(C)c2ccc(S(=O)(=O)N3CCOCC3)cc2c1=O,1%,-26%
C=C1C(C(=O)Nc2ccc(N(C)C)cc2)C1C(=O)Nc1ccc(N(C)C)cc1 (stereo unspecified),5%,12%
Cc1ccc(NC(=O)c2ccc3c(c2)NC(=O)CS3)cc1,7%,45%[activator]
Cc1ccc(Cl)cc1NC(=O)Cn1c(=O)cc(C(=O)N2CCOCC2)c2ccccc21,-2%,-14%
CCS(=O)(=O)N1CCC(NC(=O)c2cccc(NC(=O)c3cccs3)c2)CC1,3%,14%
COc1cc(C)c(Cl)cc1S(=O)(=O)N1CCC(C(N)=O)CC1,141%[activator],6%
CC(=O)c1ccc(N2CCN(C(=O)Nc3cccc(Cl)c3)CC2)cc1,-4%,13%
Cc1cc(C(C)(C)C)cc(C)c1CSC1=NCC(C)(C)CN1,0%,-7%
Cc1ccc(CNC(=O)c2ccc(Nc3nc4ccccc4n4nnnc34)cc2)cc1,-3%,40%[activator]
Clc1ccc(C2C=C(c3ccccc3)Nc3ncnn32)c(Cl)c1 (stereo unspecified),-5%,-5%
COc1ccc(OC)c(CNC(=O)c2ccccc2NC(=O)c2nsc3ccccc23)c1,-4%,37%[activator]
COc1ccc(/C=C/C(=O)OCCCN(C)C)cc1,-4%,12%
CCOc1ccc(OCC)c(NC(=O)c2nnn(CC(=O)Nc3c(C)cc(C)cc3C)c2N)c1,2%,-1%
Cc1cccc(-c2cc(C(=O)O)c3c(Br)cccc3n2)c1,-10%,59%[activator]
Cc1cccc(NC(=O)Cn2c(=O)n(CC3CCC(C(=O)NCCc4ccccc4)CC3)c(=O)c3ccccc32)c1C (stereo unspecified),-10%,-19%
O=C(c1cn(CCOc2ccc(Cl)cc2)c2ccccc12)C1CCCCC1,-11%,-13%
O=C(NCCCOC1CCCCC1)c1cc(=O)c2ccccc2o1,-10%,-7%
CCC1(c2ccc(NC(=O)c3ccc4c(c3)OCO4)cc2)CCC(=O)NC1=O (stereo unspecified),5%,48%[activator]
CCOc1cc(/C=C2\NC(=O)NC2=O)c(Br)cc1OC,?,?

# Some of the compounds tested; count on the stated rates, not on these rows.
